T cruzi repl – blocks replication of Trypanosoma cruzi; T. cruzi beta-gal in NIH3T3, luminescence, 90 h; inhibition, % (no concentration beside the values); actives 1.4% (n = 300,000); AID 1885;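 active = mean inhibition across valid replicates above about 55%, limit read from the data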;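 note: signal also drops with host cell toxicity which is not excluded here; 0% = plate median of DMSO wells and 100% = zero luminescence signal; higher percent means less beta-gal luminescence so fewer parasites; stock transfer was 50 nL into about 50 µL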
FGF22 binding – shifts melting point of recombinant human FGF22. Q9HCT0. recombinant FGF22 thermal shift, SYPRO orange fluorescence; percent of sucrose octasulfate shift, DMSO zero. calls only at 9.99 µM. actives 1.5% (n = 340,000). AID 651658;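 active = melting point raised past a set limit in the mean and every replicate; three in four hits are not shown here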
Target sequence (Q9HCT0 whole entry, looked up): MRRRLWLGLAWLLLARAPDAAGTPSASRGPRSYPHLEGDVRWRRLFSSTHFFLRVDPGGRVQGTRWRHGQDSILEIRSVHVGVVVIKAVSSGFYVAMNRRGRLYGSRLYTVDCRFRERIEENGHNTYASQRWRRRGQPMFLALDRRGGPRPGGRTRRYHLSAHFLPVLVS
rRNA inh HTS – inhibits bacterial ribosomal RNA function over humanized ribosomes | E. coli WT GFP vs humanized-ribosome RFP mutants, fluorescence, 24 h; stronger effect = lower value; DMSO median 0, no signal -100 | GFP signal change (wild-type ribosome), % (concentration not given with the values) | actives 1.6% (n = 350,000) | AID 720706;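 active = significant combined selectivity score with lowered wild-type GFP, culture density cut under 30%, mutant RFP and density less affected; inactive = any of these conditions unmet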; note: one replicate is shown; some compounds called inactive have numbers as strong as hits
E coli growth – blocks Escherichia coli growth; OD600 absorbance (no concentration beside the values); AID 1053175; OD600, 23 h; stronger effect = lower value; actives 0.21% (n = 330,000);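 active = OD600 absorbance below the run mean of sample wells minus 3.6 SD, in any replicate, cut at about 0.56 in these data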;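 note: stock transfer was 300 nL into about 60 µL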
Beta apoptosis – beta cell apoptosis inhibition; AID 435005; actives 0.8% (n = 300,000); INS-1E cytokine-induced death, ATP luminescence, 48 h; percent of positive-control rescue, neutral wells zero; protection from apoptosis, % (no concentration beside the values);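 active = all replicates at 75% or more, or half of them and the mean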;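 note: 0% = cytokine-treated negative control wells and 100% = positive control rescue; higher means more ATP so stronger rescue from cytokine killing; wells of about 40 µL received 100 nL stock; the first replicate is given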
MLL AF4-AF9 inh – MLL-AF4/AF9 protein interaction inhibition; inhibition, % at 10 µM; AlphaScreen, biotin-AF4 peptide binding to FLAG-AF9; actives 0.47% (n = 350,000); P42568; AID 651704;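 active = every replicate reaching a set inhibition limit, whatever the replicate mean, cut at about 25% in these data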;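 note: 0% = plate neutral control median and 100% = total signal loss; the record names both 10 and 1 µM as test concentration; the first replicate is given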
A1 inh – inhibitors of the anti-apoptotic protein A1, read as caspase activation | MEF A1-2A-BIM cells, Caspase-Glo 3/7 luminescence, 3 h; percent of clofoctol response, vehicle zero | caspase activation, % (test concentration not listed) | actives 0.066% (n = 330,000);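 active = over half of replicate activation scores above 10%, or exactly half above 10 with the replicate mean above 10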;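 note: wells of about 30 µL received 50 nL stock; many hits fall short of the cut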
UCH37 inh – inhibitors of human deubiquitinating enzyme UCH37; Q9Y5K5; purified proteasome/UCH37, Ub-AMC cleavage fluorescence; inhibition, % (concentration not given with the values); actives 0.33% (n = 330,000); AID 588478;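 active = mean of two replicates above 20%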;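 note: 0% = compound-free wells with enzyme and 100% = wells lacking proteasome; stock transfer was 100 nL into about 20 µL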
Target sequence (Q9Y5K5 whole entry, looked up): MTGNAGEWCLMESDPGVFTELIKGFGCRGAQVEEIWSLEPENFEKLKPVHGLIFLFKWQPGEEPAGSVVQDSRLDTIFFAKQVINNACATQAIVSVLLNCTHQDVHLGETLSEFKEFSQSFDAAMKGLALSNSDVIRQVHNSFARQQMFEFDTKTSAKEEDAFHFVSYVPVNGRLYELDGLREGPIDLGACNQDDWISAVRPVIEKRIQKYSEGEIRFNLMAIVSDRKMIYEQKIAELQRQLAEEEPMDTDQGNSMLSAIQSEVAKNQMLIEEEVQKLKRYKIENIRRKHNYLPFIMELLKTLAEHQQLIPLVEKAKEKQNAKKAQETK
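assay system = human UCH37 enzyme supplied as purified proteasome complex | amount = proteasome at 0.15 nM in the dispensed enzyme solution | schedule = 30 min compound-proteasome preincubation then 25 min substrate reaction, room temperature | measured by = fluorescence, ex 355 nm, em 460 nm | benchmarks = no-proteasome wells (full inhibition) and compound-free wells (no inhibition)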
rRNA inh HTS OD600 – second read-out of rRNA inh HTS, no call of its own (marks repeat the call); OD600 change, %; measured here: OD600 growth;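 optical density of the mix in the first replicate; 0 = DMSO median and -100 = no signal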
rRNA inh HTS RFP – also measured in rRNA inh HTS; calls as there; RFP signal change, %; measured here: RFP humanized mutant strains;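 first replicate; 0 = DMSO median and -100 = no signal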
The depositor's hits bear a star; i = inactive; · = no result given. These rows are one share of the data. The share of hits here may be higher or lower than overall.

entry	Compound	T cruzi repl	FGF22 binding	rRNA inh HTS	rRNA inh HTS OD600	rRNA inh HTS RFP
1	CC(OC(=O)Cc1n[nH]c(=O)c2ccccc12)C(=O)Nc1ccc(F)cc1 (centres undefined)	2	i	2	6	0.6
2	CCOc1cc(NC(=S)NCCCN2CCOCC2)c(OCC)cc1NC(=O)CC(C)C	11	·	·	·	·
3	C=CCc1cc(Cl)ccc1OCCOCCN(C)C	18	i	-10	-24	-2.2
4	COC(=O)c1ccc(COn2c(=O)c(C)[n+]([O-])c3ccccc32)cc1	-5	·	·	·	·
5	CCOC(=O)c1cc(S(=O)(=O)N2CCN(Cc3ccccc3)CC2)cn1C	-1	i	·	·	·
6	Cc1c(C)n2c(SCC(=O)N3CCCC3)nnc2[nH]c1=O	-4	i	11	5	-0.1
7	COCCCNCC#CCOc1ccc(OC)cc1	9	i	14	3	3.6
8	C=CCNC(=O)c1c(CS(=O)(=O)c2ccccc2)noc1C(=O)NCc1ccccc1	·	i	12	8	4.4

entry	E coli growth	Beta apoptosis	MLL AF4-AF9 inh	A1 inh	UCH37 inh
1	0.69	-1	-1.3	0.2	-0.2
2	0.72	9	·	0.6	2.0
3	0.68	2	-2.8	0.2	1.1
4	0.75	·	·	0.1	-8.1
5	0.8	-7	1.3	0.2	1.4
6	0.66	·	-1.6	1.6	1.1
7	0.7	-1	1.8	0.0	-0.4
8	0.73	-16	-2.0	-0.5	-2.0

Later entries:
entry	Compound	T cruzi repl	FGF22 binding	rRNA inh HTS	rRNA inh HTS OD600	rRNA inh HTS RFP
9	Cc1cccnc1NC(=O)Nc1cccs1	6	·	·	·	·
10	O=C(CCNc1ccc(F)c(Cl)c1)c1ccco1	33	i	2	0	3.6
11	CCc1ccc(CN2CCC(n3nccc3NC(=O)c3cccc(F)c3)CC2)cc1	18	i	-2	1	1.3
12	COC(=O)C(NC(=O)c1ccc(C)cc1)(Nc1cccc(C)n1)C(F)(F)F (centres undefined)	-3	·	·	·	·
13	Cc1cc(C)c2c(N)c(C(=O)c3ccc(Br)cc3)oc2n1	9	i	0	2	-2.8
14	CC1=CC(=C(C#N)c2nc3ccccc3s2)C=C(C)N1c1ccc(F)cc1F	43	·	·	·	·
15	Cn1nc(-c2ccc(N3CCN(CCO)CC3)c([N+](=O)[O-])c2)c2ccccc2c1=O	35	i	1	3	-1.7
16	COc1cccc(C2NC(c3cccc(OC)c3O)C(C)C(=O)C2C)c1O (centres undefined)	-23	i	-22	-28	-3.0

entry	E coli growth	Beta apoptosis	MLL AF4-AF9 inh	A1 inh	UCH37 inh
9	0.65	5	·	-1.5	5.3
10	0.64	-7	-15	-0.4	2.0
11	0.71	3	4.0	0.2	2.0
12	0.7	-11	·	-0.3	3.6
13	0.7	11	0.9	0.0	-4.5
14	0.74	-7	·	0.8	-12
15	0.68	-11	1.9	-0.6	6.1
16	0.7	-7	-16	1.3	2.2

New compounds follow
entry	Compound	T cruzi repl	FGF22 binding	rRNA inh HTS	rRNA inh HTS OD600	rRNA inh HTS RFP
17	Cc1cc(C(=O)C(C)OC(=O)c2ccc(NC(=O)CC#N)cc2)c(C)n1-c1ccc(OC(F)F)cc1 (centres undefined)	·	i	4	2	-1.8
18	O=c1[nH]snc1N1CCOCC1	-10	i	23	15	0.2
19	CCC(=O)N(CCc1ccccc1)Cc1cc2cc(C)ccc2[nH]c1=O	-1	i	5	8	-2.3
20	COc1ccc(C(=S)N2CCOCC2)cc1OC(=O)c1ccc([N+](=O)[O-])cc1	-7	i	-8	2	-1.1
21	COCc1cc(N2CCOCC2)nc(SCc2ccc(Cl)cc2)n1	21	i	-28	-32	-4.4
22	CC(C)C(=O)Nc1nnc(CCN2CCOCC2)s1	-17	·	·	·	·
23	O=C(OCc1cccc2ccccc12)C1CC(=O)N(c2ccccc2)C1 (centres undefined)	0	·	6	5	-2.0
24	O=C(NCc1ccccc1)/C(=C\c1ccc(O)cc1)NC(=O)c1ccco1	10	i	-1	6	-2.4

entry	E coli growth	Beta apoptosis	MLL AF4-AF9 inh	A1 inh	UCH37 inh
17	0.68	88*	4.3	-0.5	1.1
18	0.65	-4	1.7	0.1	3.9
19	0.65	-1	-2.0	0.1	-1.7
20	0.67	-5	-1.2	0.8	3.6
21	0.67	-4	-2.6	-0.3	2.6
22	0.69	-9	·	·	1.1
23	0.73	-1	·	·	2.2
24	0.7	-15	-0.2	-0.1	6.3

From no. 10 to 11, copied from above:
entry	Compound	T cruzi repl	FGF22 binding	rRNA inh HTS	rRNA inh HTS OD600	rRNA inh HTS RFP
10	O=C(CCNc1ccc(F)c(Cl)c1)c1ccco1	33	i	2	0	3.6
11	CCc1ccc(CN2CCC(n3nccc3NC(=O)c3cccc(F)c3)CC2)cc1	18	i	-2	1	1.3

entry	E coli growth	Beta apoptosis	MLL AF4-AF9 inh	A1 inh	UCH37 inh
10	0.64	-7	-15	-0.4	2.0
11	0.71	3	4.0	0.2	2.0

Further structures
entry	Compound	T cruzi repl	FGF22 binding	rRNA inh HTS	rRNA inh HTS OD600	rRNA inh HTS RFP
25	O=C(CSc1ncnc2c1oc1ccccc12)OCc1ccccc1	-13	i	9	3	20
26	CCOC(=O)N1CCN(C(=O)c2ccc3c(Cl)c4c(nc3c2)CCCC4)CC1	3	i	-4	-26	-1.7
27	CNC(=O)C(C)Sc1ccc(S(=O)(=O)N2CCOCC2)cn1 (centres undefined)	·	i	2	-18	-4.8
28	Cc1cc2c(cc1S(=O)(=O)CCC(=O)NCc1ccccc1)OCC(=O)N2	-5	i	-7	-2	-3.2
29	O=C(NCc1ccco1)c1cc(-c2cccc(Cl)c2)on1	-3	·	·	·	·
30	Cc1ccc(C(=O)NC(=S)NCc2ccccc2)cc1Br	0	i	11	10	4.1
31	O=C(Nc1nnc(CCN2CCCCC2)s1)C1CCCCC1	12	·	·	·	·
32	COc1ccc(C(=O)NC(=S)Nc2ccc(CN3CCCCC3)cc2)cc1Cl	51	i	-20*	-14*	3.2*

entry	E coli growth	Beta apoptosis	MLL AF4-AF9 inh	A1 inh	UCH37 inh
25	0.66	-2	-2.2	0.2	1.3
26	0.68	0	-1.1	-0.3	4.0
27	0.71	0	-2.5	0.0	0.7
28	0.77	3	-6.1	-0.2	0.1
29	0.7	2	·	0.4	3.0
30	0.65	·	-1.7	1.0	1.9
31	0.79	-6	·	0.8	2.2
32	·	·	13	-0.1	·

(list continues)
entry	Compound	T cruzi repl	FGF22 binding	rRNA inh HTS	rRNA inh HTS OD600	rRNA inh HTS RFP
33	Cc1c(N)cccc1-n1cccc1	-10	i	9	8	-8.7
34	O=S(=O)(/N=C(/Nc1ccccc1)c1ccccc1O)c1ccccc1	-7	i	-7	6	4.9
35	CC(NC(=O)CNC(=O)OCc1ccccc1)C(=O)N1CC(O)CC1C(=O)OCc1ccccc1 (centres undefined)	-2	·	·	·	·
36	CCN(C[C@H]1N[C@@](CC)(C(=O)OC)[C@H]2C(=O)N(C)C(=O)[C@@H]12)C(=O)Nc1ccc(Cl)cc1	·	i	-39	-31	-19
37	CC(C)(C)C1=C(C#N)C(c2cc3c(cc2Br)OCO3)C(C#N)=C(N)O1 (centres undefined)	-2	·	·	·	·
38	COc1ccccc1NS(=O)(=O)c1ccc(/C=C/C(=O)N2CCN(C(C)=O)CC2)cc1	·	i	2	6	-0.9
39	CCOC(=O)N(C)c1ccc(C(O)(C(F)(F)F)C(F)(F)F)cc1	1	·	·	·	·
40	CS(=O)(=O)NCCSc1cc(C(F)(F)F)nc2ccccc12	-5	i	-20*	-8.7*	1.0*

entry	E coli growth	Beta apoptosis	MLL AF4-AF9 inh	A1 inh	UCH37 inh
33	0.73	-3	-1.7	1.3	-1.9
34	0.65	-5	-1.3	0.1	1.2
35	0.74	0	·	0.4	0.6
36	0.73	·	1.1	·	4.6
37	0.69	3	·	0.0	2.0
38	0.7	0	1.0	0.1	0.5
39	0.69	2	·	0.8	1.4
40	0.69	2	-2.7	0.8	4.9

Next section.
entry	Compound	T cruzi repl	FGF22 binding	rRNA inh HTS	rRNA inh HTS OD600	rRNA inh HTS RFP
41	Cc1ccc2c(c1)c1c3n2CCN(C(=O)C2CC2)C3CCC1 (centres undefined)	2	i	-10	-43	-1.4
42	COc1ccc(N2CCN(CC(O)COCCOc3ccc(Br)cc3)CC2)cc1 (centres undefined)	42	i	9	2	-0.3
43	CCc1noc(C)c1C(=O)OCC(=O)N(CC)c1c(N)n(Cc2ccccc2)c(=O)[nH]c1=O	-6	i	11	15	1.8
44	COc1cccc(C(=O)Nn2c(-c3cccs3)nc3ccccc3c2=O)c1OC	12	i	10	9	1.1
45	CC[N+](CC)(CC)CCC(O)(c1ccccc1)C1CCCCC1 (centres undefined)	·	i	·	·	·
46	COc1ccc(CN(Cc2ccco2)S(=O)(=O)c2ccc(S(=O)(=O)N3CCCC3)cc2)cc1	24	·	·	·	·
47	Cc1cccc(-c2c3c(=O)n(C)c(=O)n(C)c3cn2C(C)C)c1	5	i	4	6	-3.1
48	O=C(c1ccc(-c2ccccc2)cc1)c1ccccc1C(=O)N1CCOCC1	0	·	·	·	·

entry	E coli growth	Beta apoptosis	MLL AF4-AF9 inh	A1 inh	UCH37 inh
41	0.76	6	0.5	0.6	-21
42	0.71	-3	2.3	0.3	0.2
43	0.7	-5	-3.5	1.1	3.6
44	0.68	8	1.7	0.2	-0.8
45	0.69	-2	3.7	0.3	2.2
46	0.7	·	·	0.2	4.4
47	0.66	5	9.1	-0.2	-1.4
48	0.74	0	·	-0.4	2.8

Later entries
entry	Compound	T cruzi repl	FGF22 binding	rRNA inh HTS	rRNA inh HTS OD600	rRNA inh HTS RFP
49	COCCNC(=O)c1sc2nc(-c3ccccc3)cn2c1C	0	·	·	·	·
50	O=C(NCC1CC1)C1(S(=O)(=O)c2ccccc2)CC=CC1	-18	i	10	2	-1.5
51	COc1cccc(CN2CCC(C(=O)Nc3ccc(Oc4cccnc4)cc3)CC2)c1	16	i	2	6	-1.2
52	CCOc1ccc(S(=O)(=O)n2c([N+](=O)[O-])cnc2C)c(C)c1C	4	i	2	9	0.0
53	Cc1ccc(NC(=O)c2ccc3c(=O)n4c(nc3c2)CCC4)cc1F	·	i	-6	4	-1.8

entry	E coli growth	Beta apoptosis	MLL AF4-AF9 inh	A1 inh	UCH37 inh
49	0.65	4	·	0.2	3.6
50	0.66	-1	-2.9	0.0	5.4
51	0.67	·	-0.5	·	5.1
52	0.71	-5	0.5	-0.7	3.5
53	0.68	-10	1.7	-2.5	0.2

High-throughput results as filed in PubChem BioAssay.
